Vaccinia Venus = vaccinia inhibition (Venus reporter); hit rate 0.46% among 330,000; Potency, µM (titrated, usually from 36.5 µM), for the others: at the top dose activity change, negative = inhibition, hits mostly inhibitors; Vaccinia virus Venus reporter expression, fluorescence; AID 720580; active means well fitted inhibition curve with a large enough effect; inconclusive means small, poorly fitted or top-dose-only effect; inactive means no such curve, though single readings can be large or run the other way; tested in A549 cells; further: nearly all actives have a fitted effect of over 30% in size; inactives centre near -10
VACV mCherry inh = inhibitors of vaccinia virus infection (mCherry reporter signal); hit rate 0.63% among 310,000; Vaccinia virus mCherry reporter infection, fluorescence; about a quarter of the inactives have no number; AID 720579; Potency, µM (doses to about 36.5 µM), for the others: top-dose activity change, negative = inhibition, usual class: inhibitors; active = well fitted inhibition curve with a large enough effect; inconclusive = small, poorly fitted or top-dose-only effect; inactive = no such curve, though single readings can be large or run the other way; tested in A549 cells; further: nearly all actives have a fitted effect of over 35% in size; inactives centre near -10
* = called active by the depositor; i = inactive; u = inconclusive; x = not tested or not shown; [ ] = remark or other dose. On the % scale 0 is the no-effect control and ±100 the full control effect; potency means the concentration at half of the fitted maximal effect.

Start of the listing, in advance:
Structure	Vaccinia Venus	VACV mCherry inh
Cc1cc(Nc2cccc(C(F)(F)F)c2)nc2ccc(NC(=O)c3cccnc3)cc12	11µM*	10µM*
NC(=O)[C@@H]1CCCN1C(=O)c1ccc2oc(CCc3ccccc3)nc2c1	-23%	u
C[C@@H]1CN([C@H](C)CO)C(=O)CCCn2cc(nn2)CO[C@H]1CN(C)C(=O)Cc1ccccc1	-16%	-10%
COC(=O)c1cc(OC)c(OC)cc1NC(=O)c1ccccc1	-25%	x
O=C(Nc1cccc(Cl)c1)c1cc(-c2ccc3c(c2)OCO3)on1	-2%	10%

The whole of this part, previewed entries included:
Structure	Vaccinia Venus	VACV mCherry inh
Cc1cc(Nc2cccc(C(F)(F)F)c2)nc2ccc(NC(=O)c3cccnc3)cc12	11µM*	10µM*
NC(=O)[C@@H]1CCCN1C(=O)c1ccc2oc(CCc3ccccc3)nc2c1	-23%	u
C[C@@H]1CN([C@H](C)CO)C(=O)CCCn2cc(nn2)CO[C@H]1CN(C)C(=O)Cc1ccccc1	-16%	-10%
COC(=O)c1cc(OC)c(OC)cc1NC(=O)c1ccccc1	-25%	x
O=C(Nc1cccc(Cl)c1)c1cc(-c2ccc3c(c2)OCO3)on1	-2%	10%
COc1ccc(NC(=O)c2coc(C)c2)cc1	2%	-1%
O=C(c1ccccc1)N1CCN(C(=S)NCCc2ccccc2)CC1	-8%	-3%
CC1(Cc2cccc(C#N)c2)C(=O)Nc2ccc(-c3cccc(C(F)(F)F)c3)cc21 (centres undefined)	u	-12%
CCOC(=O)C1=C(C)N(C[C@@H]2CC[C@@H](Cc3ccc4cc(OC)ccc4c3)O2)C(=O)NC1c1ccc(OC)cc1 (some centres undefined)	u	u
CCCCCC(=O)Nc1cccc(C2=NOC3(C2)C[C@@H](C(N)=O)N(C(=O)Cc2ccc([N+](=O)[O-])cc2)C3)c1 (some centres undefined)	-11%	i

Remaining list, next part.
Structure	Vaccinia Venus	VACV mCherry inh
COc1ccc(C(=O)NCc2nnc(SCC(=O)Nc3cccc(F)c3)o2)cc1	-6%	i
CN(C)CCCCCN(C)Cc1cc2ccccc2o1	0%	-8%
Cc1nc(-c2ccc(S(=O)(=O)Nc3cc(Cl)ccc3C)cc2)co1	1%	-6%
Cc1ccc(S(=O)(=O)N2CCN(c3nc4ccccc4nc3-n3nc(C)cc3C)CC2)cc1	-23%	x
CCc1cccc(CC)c1NC(=O)C1CSC2(C)CCC(=O)N12 (centres undefined)	-8%	-13%
Cc1ccc(SCC(=O)NCc2ccco2)cc1	1%	-14%
COC(=O)c1ccccc1NC(=O)CSc1nnnn1C	0%	-11%
CCOC(=O)c1ccc2cccc(C)n2c1=O	-13%	-16%
Cc1ccccc1C(=O)OC(C)CN1CCN(C)CC1 (centres undefined)	4%	-6%
O=C(C[n+]1cccc(Br)c1)c1cccc([N+](=O)[O-])c1	2%	-7%

Looked up above.
`CN(C)CCCCCN(C)Cc1cc2ccccc2o1` in Vaccinia Venus is listed with 0%
`COc1ccc(C(=O)NCc2nnc(SCC(=O)Nc3cccc(F)c3)o2)cc1` in Vaccinia Venus is listed with -6%

Further structures
Structure	Vaccinia Venus	VACV mCherry inh
CCN(C(=O)c1cc(S(=O)(=O)N2CCOCC2)cn1C)c1ccc(OC)cc1	-3%	-8%
O=C(NCc1nnc(SCC(=O)N2CCN(c3ccccc3)CC2)o1)c1ccco1	22%	4%
O=C1CN(C(=O)c2ccc(Br)o2)C(c2ccccc2)c2cc(Cl)ccc2N1 (centres undefined)	-19%	i
Nc1nc(C2CC(=O)OC23CCCCC3)cs1 (centres undefined)	-4%	-6%
C[C@]12CCC[C@H](O1)c1c(cc3c(c1O)C(=O)c1c(O)cc(O)cc1C3=O)O2	19%	i
COc1ccc(C)cc1NC(=O)C(NS(=O)(=O)c1cccs1)c1ccccc1 (centres undefined)	10%	-7%
COc1cc(CNCCSc2nnnn2C)cc(Br)c1OCc1ccc(F)cc1	u	x
Clc1ccc2oc3c(Cl)ncnc3c2c1	-6%	i
CCN(CC)c1nc2c(c(=O)[nH]c(=O)n2C)n1CCOc1ccccc1	-20%	-6%
Cc1c(C(=O)NCC2COCCO2)cnn1-c1nccc(-c2cccs2)n1 (centres undefined)	-13%	-4%

The list goes on:
Structure	Vaccinia Venus	VACV mCherry inh
CCCN1C(=O)C2(c3ccccc31)c1c(oc3ccccc3c1=O)C(=O)N2CCCOC(C)C (centres undefined)	-12%	-12%
Cc1cccc(/C=C2\CCC(C3CCCC3)C2=O)c1 (centres undefined)	-9%	-3%
COc1cc(CNc2ncn[nH]2)cc(Br)c1OC	-19%	-15%
COc1ccc(C(=O)N/C(=C\c2ccccc2)C(=O)Nc2ccccc2C(=O)O)cc1	5%	-13%
COCCCN(Cc1ccco1)C(=O)c1cc2c(s1)-c1ccc(Cl)cc1S(=O)(=O)C2	-6%	-12%
COC(=O)C1=C(C)NC(C)=C(C(=O)OCC2CCCO2)C1c1cccc(Cl)c1 (centres undefined)	-16%	-26%
CCS(=O)(=O)c1cccc(C(=O)N2CCN(c3nc4c(C)ccc(Cl)c4s3)CC2)c1	-16%[7.34 µM]	-9%[7.34 µM]
CC(C)CCn1c(=O)c2ccccc2n2c(CCC(=O)NC3CCN(Cc4ccccc4)CC3)nnc12	-16%	u
COc1ccc(CC2(CO)CCN(Cc3cccnc3)CC2)cc1	3%	-3%
Cn1nc(C(F)(F)F)c(C#N)c1N1CCN(c2ccccn2)CC1	-5%	-16%

Later entries.
Structure	Vaccinia Venus	VACV mCherry inh
CNC(=S)N1CCN(c2c(F)cc3c(=O)c(C(=O)O)cn(C4CC4)c3c2OC)CC1C (centres undefined)	-12%	-18%[1.46 µM]
COc1ccccc1CNCCc1cccc(Cl)c1	-16%	-2%
CCOC(=O)C1(C)CCCCCN1C(=O)c1ccc(C(=O)OC)cc1 (centres undefined)	0%	10%
CCOC(=O)C1CCN(C(=O)N2CCOCC2)CC1	-3%	-3%
Cc1nn(-c2ccccc2)c(C)c1C(=O)Nc1ccc(N2CCOCC2)cc1	-18%	-9%
COc1ccc2oc(=Nc3cc(F)ccc3F)c(C(N)=O)cc2c1	u	u
Cc1ccccc1-c1csc(C(O)c2ccc(F)cc2)n1 (centres undefined)	1%	i
COc1cccc(CNC(=O)Cn2c(SCC(=O)Nc3ccc(F)cc3)nc3ccccc32)c1	-13%	-27%
COc1ccccc1OCc1nc(C#N)c(NCCCn2ccnc2)o1	0%	-21%
CC(NC(=O)COC(=O)/C(=C/c1cccs1)c1cccs1)c1ccccc1 (centres undefined)	-25%	-22%

Further structures follow:
Structure	Vaccinia Venus	VACV mCherry inh
O=C(NNC(=O)c1cccs1)c1ccc(F)cc1	-1%	-15%
CCCCCCNc1c(C(=O)OCC)c(=O)[nH]c2ccccc12	u	-17%
CC(=O)N1CCN(C(=O)c2cc(S(=O)(=O)N3CCCCC3)ccc2Cl)CC1	-9%	-14%
CCOc1ccc(Nc2nc(Nc3ccc(O)cc3)nc(C)c2[N+](=O)[O-])cc1	-6%	-26%
O=C(Cc1c[nH]c2ccccc12)N[C@@H](Cc1c[nH]c2ccccc12)C(=O)O	-11%	i
Cc1ccc(C(=O)NC(Cc2cccc(C(F)(F)F)c2)C(=O)O)cc1 (centres undefined)	-15%	-22%
CC1(C(=O)NS(=O)(=O)c2ccccc2Cl)CCN1C(=O)C1CCCCC1 (centres undefined)	0%	-4%
Cc1cc(Cl)ccc1OCC(=O)Nc1cccnc1	-13%	-5%
CCC(CC)c1nnc(NC(=O)CCc2ccccc2)s1	-15%	i
CCCCNC(=O)CSc1nc(N)c(C(=O)Nc2ccc(OC)cc2)s1	u	u

Next section
Structure	Vaccinia Venus	VACV mCherry inh
CCCCN(C)C(=O)c1sc(=O)n(Cc2ccccc2F)c1C	5%	i
COc1cnn(Cc2ccccc2)c(=O)c1SCc1ccccc1	-17%	-27%
Cc1onc(-c2c(F)cccc2Cl)c1C(=O)NC(=S)NC1CCSC1=O (centres undefined)	-18%	i
COc1ccc(CN2CCN(C(=O)c3ccc(S(=O)(=O)NCc4ccco4)cc3)CC2)cc1F	-28%	-3%
CC1(C)C2CCC1(CS(=O)(=O)NCc1ccc(Cl)cc1Cl)C(=O)C2 (centres undefined)	u	u
Cc1cc(C=O)c(C)n1-c1ccc(N2CCCC2)c([N+](=O)[O-])c1	u	x
CC(=O)N1CCN(C(=O)c2cc(S(=O)(=O)NCc3ccccc3)ccc2C)CC1	5%	-2%
CCN(CC)CCn1c2c(c(SCC(=O)Nc3nc4ccccc4s3)nc1=O)CCC2	-7%	-17%
CCOc1ccc(S(=O)(=O)Nc2ccc3c(c2)CCCN3C(=O)c2cccs2)cc1	-15%	-22%
COC(=O)Cn1c(CN2CCN(c3ccccc3F)CC2)nc2c1c(=O)n(C)c(=O)n2C	-12%	i

Reprinted from the entries so far for reference:
Structure	Vaccinia Venus	VACV mCherry inh
CCN(CC)CCn1c2c(c(SCC(=O)Nc3nc4ccccc4s3)nc1=O)CCC2	-7%	-17%
CCOc1ccc(S(=O)(=O)Nc2ccc3c(c2)CCCN3C(=O)c2cccs2)cc1	-15%	-22%
COC(=O)Cn1c(CN2CCN(c3ccccc3F)CC2)nc2c1c(=O)n(C)c(=O)n2C	-12%	i

Next compounds.
Structure	Vaccinia Venus	VACV mCherry inh
CC1CCCCN1C(=O)CSc1nc(N)cc(=O)[nH]1 (centres undefined)	9%	x
COc1ccc(C(=O)n2nc(-c3ccco3)nc2N)cc1	-17%	-13%
COc1ccc(OCCN2C(=O)c3ccccc3C2=O)cc1	5%	i
Cn1/c(=N\NC(=O)C2CCCCC2)sc2ccccc21	-9%	-9%
CCCc1[nH][nH]c(=O)c1C(c1cccc(Cl)c1)C(C#N)C#N (centres undefined)	-30%	u
CN(C)C(CNC(=O)c1cccc(NS(=O)(=O)c2ccc(Br)cc2)c1)c1ccco1 (centres undefined)	-5%	-7%
COc1ccc(C2CC(=O)Oc3cc4c(cc32)OCO4)cc1 (centres undefined)	-4%	-14%
O=C(NNS(=O)(=O)c1ccc2ccccc2c1)c1cccs1	-3%	i
CS(=O)(=O)N(CC(=O)Nc1ccc(S(=O)(=O)N2CCOCC2)cc1)c1ccccc1Br	-7%	-19%
CCCCC[C@H](C)N1C[C@H](COCc2ccccc2)Oc2cc(N3CCC[C@@H]3CO)ccc2S1(=O)=O	-12%	13%

(more compounds)
Structure	Vaccinia Venus	VACV mCherry inh
CC(=O)Nc1cc(-c2cccc(CO)c2)cn2c(-c3cccc(C(F)(F)F)c3)cnc12	u	u
O=S(=O)(Nc1cnc2ccccc2c1)N1CCCCCC1	u	x
Cc1ccc(Cl)cc1N1CCN(C(=O)C2CCN(S(=O)(=O)c3ccc4c(c3)oc(=O)n4C)CC2)CC1	u	i
COc1cccc(N2CCN(C(=O)Cn3ncc4c(=O)oc5ccccc5c43)CC2)c1	-1%	1%
COc1ccc(OCc2cc(C(=O)NC(C)c3cnn(C)c3)no2)c(Cl)c1 (centres undefined)	-15%	i
O=C(Nc1ccc2oc(-c3ccc(O)c(Br)c3)nc2c1)c1cc2ccccc2o1	-20%	-30%
CC1=C(C(=O)OC2CCCC2)C(c2cccc(Cl)c2Cl)CC(=O)N1 (centres undefined)	-15%	-18%
O=C1NCCCC1C(=O)N1CCCCC1 (centres undefined)	6%	i
CCOC(=O)N1CCN(S(=O)(=O)c2ccc(C(=O)N(CCN(C)C)c3nc4ccc(CC)cc4s3)cc2)CC1	-26%	-5%
Cc1cc(C)c2c(n1)nn1c(-n3ccnc3)cc(C)nc21	-17%	-6%

Further entries.
Structure	Vaccinia Venus	VACV mCherry inh
CC(=O)Nc1ccc(Nc2nc(Nc3ccc(Cl)cc3)nc(N3CCOCC3)n2)cc1	-23%	-20%
O=C(O)c1cc(S(=O)(=O)Nc2ccc3oc(=O)sc3c2)ccc1O	-28%	x
CC1(C(=O)O)CCCN1C(=O)c1ccco1 (centres undefined)	1%	i
O=[N+]([O-])c1cccc(-c2ccc(C(=S)N3CCOCC3)o2)c1	1%	-16%
COc1cc2cc(CCCOC(=O)c3ccc(Br)cc3)oc(=O)c2cc1OC	-5%	i
CCOC(=O)c1c(NC(=O)C[n+]2ccc(N(C)C)cc2)sc(C)c1C	8%	i
O=C(COC(=O)Cc1c[nH]c2ccccc12)Nc1c(Cl)cccc1C(F)(F)F	-6%	-8%
COc1ccc(CCN2C(=O)COc3ccccc3C2C(=O)NC(C)(C)C)cc1OC (centres undefined)	5%	8%
Brc1cccc(OCCOCCn2ccnc2)c1	-28%	u
CC1=C(C(=O)Nc2ccccc2Cl)C(c2cccs2)n2ncnc2N1 (centres undefined)	-11%	-6%

Further results follow.
Structure	Vaccinia Venus	VACV mCherry inh
CCOC(=O)N1CCC(N(C(=O)Nc2ccccc2)C(C)CC)CC1 (centres undefined)	-6%	i
CC1=C(C(=O)N(C)C)CC(CC(=O)NCCCCc2ccccc2)C(=O)N1CCCN1CCCC1=O (centres undefined)	-10%	i
COc1cc(C(=O)Nc2ccc(NC(=O)c3cccc(Cl)c3)nc2)cc(OC)c1OC	-18%	u
CCOCCCNC(=O)C(c1ccc(C)cc1)N(Cc1cccs1)C(=O)c1ccccn1 (centres undefined)	-10%	-11%
COc1cc(NC(=O)COC(=O)CCOc2ccc(C)cc2)cc(OC)c1	-13%	-2%
Cc1ccc(S(=O)(=O)N2CCCOC2CNC(=O)C(=O)NCc2cccs2)cc1 (centres undefined)	-23%	0%
CO[C@H]1[C@H](NC(=O)c2ccsc2)c2ccccc2C12CCN(Cc1ccc3c(c1)OCO3)CC2	-8%	-18%
N#Cc1nc(COc2ccccc2)oc1NCCCn1ccnc1	-8%	-14%
COc1cc(OC)c(OC)cc1CN1CCCC(C(=O)N2CCCC2)C1 (centres undefined)	4%	-10%

Outcome played no part in choosing rows; about 0.88% have a hit in one of these screens.
